rRNA inh HTS: inhibits bacterial ribosomal RNA function over humanized ribosomes. E. coli WT GFP vs humanized-ribosome RFP mutants, fluorescence, 24 h; hits give low values; DMSO median 0, no signal -100. GFP signal change (wild-type ribosome), % (no concentration beside the values). actives 1.6% (n = 350,000). AID 720706;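 active = significant combined selectivity score with lowered wild-type GFP, culture density cut under 30%, mutant RFP and density less affected; inactive = any of these conditions unmet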; note: one replicate is shown; some compounds called inactive have numbers as strong as hits
FGF22 binding: binders of recombinant human FGF22 by thermal shift | Q9HCT0 | SYPRO orange fluorescence; percent of sucrose octasulfate shift, DMSO zero | calls only at 9.99 µM | actives 1.5% (n = 340,000) | AID 651658;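 active = melting point raised past a set limit in the mean and every replicate; three in four hits are not shown here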
Target sequence (Q9HCT0 whole entry, looked up): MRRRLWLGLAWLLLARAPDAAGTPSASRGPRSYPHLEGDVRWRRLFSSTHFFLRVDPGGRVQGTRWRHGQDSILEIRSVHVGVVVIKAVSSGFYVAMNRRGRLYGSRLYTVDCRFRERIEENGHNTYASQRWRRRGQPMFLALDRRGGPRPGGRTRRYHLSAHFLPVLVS
AF4-AF9 inh: blocks AF4 peptide binding to human AF9; AlphaScreen, biotin-AF4 peptide binding to FLAG-AF9; inhibition, % at 10 µM; actives 0.47% (n = 350,000); AID 651704;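 active = every replicate reaching a set inhibition limit, whatever the replicate mean, cut at about 25% in these data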;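 note: 0% = plate neutral control median and 100% = total signal loss; the record names both 10 and 1 µM as test concentration; the first replicate is given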
Target sequence (P42568 whole entry, looked up): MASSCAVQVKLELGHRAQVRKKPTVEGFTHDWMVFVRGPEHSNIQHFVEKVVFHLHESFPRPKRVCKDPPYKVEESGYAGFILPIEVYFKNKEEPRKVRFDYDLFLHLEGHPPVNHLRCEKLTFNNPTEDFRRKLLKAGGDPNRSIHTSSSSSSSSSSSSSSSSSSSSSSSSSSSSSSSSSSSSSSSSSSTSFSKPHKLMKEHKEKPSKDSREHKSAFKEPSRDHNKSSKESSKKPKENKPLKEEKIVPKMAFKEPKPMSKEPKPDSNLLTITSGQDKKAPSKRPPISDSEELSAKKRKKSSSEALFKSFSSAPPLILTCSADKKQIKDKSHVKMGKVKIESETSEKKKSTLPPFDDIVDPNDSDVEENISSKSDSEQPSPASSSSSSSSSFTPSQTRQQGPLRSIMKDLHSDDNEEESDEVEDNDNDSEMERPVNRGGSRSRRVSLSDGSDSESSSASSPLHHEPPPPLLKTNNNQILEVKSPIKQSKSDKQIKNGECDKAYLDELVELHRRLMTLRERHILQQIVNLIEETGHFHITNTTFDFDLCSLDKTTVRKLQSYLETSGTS
rRNA inh HTS OD600: also measured in rRNA inh HTS; calls as there; OD600 change, %; measured here: OD600 growth;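 optical density of the mix in the first replicate; 0 = DMSO median and -100 = no signal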
rRNA inh HTS RFP: also measured in rRNA inh HTS; calls as there; RFP signal change, %; measured here: RFP humanized mutant strains;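 first replicate; 0 = DMSO median and -100 = no signal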
* marks the source's active call; other numbers are inactive results; i = inactive; & = joins results of further samples. This is a subset, so the mix of outcomes need not match the whole.

The opening six compounds (preview)
SMILES,rRNA inh HTS,rRNA inh HTS OD600,rRNA inh HTS RFP,FGF22 binding,AF4-AF9 inh
COc1ccc(S(=O)(=O)Nc2ccc3c(c2)C(=O)N([C@H](C)CO)C[C@H](C)[C@@H](CN(C)S(=O)(=O)c2ccc(F)cc2)OCCCC[C@H](C)O3)cc1,-4,-1,-1.2,i,-2.2
C/C=C/c1ccc([C@H]2[C@@H](CNC(C)C)N(Cc3cccnc3)[C@H]2CO)cc1,0,-11,2.6,i,0.7
COc1ccc(N2CCN(C3C(=O)Nc4ccccc4-n4nnnc43)CC2)cc1 (centres undefined),1,-17,0.8,i,7.4
COC(=O)[C@@]12C[C@@H](CC(=O)N3CCCCC3)C(=O)N(Cc3ccccc3)C1=CCC(C)(C)C2,1,-7,-0.1,i,-2.0
COc1ccc(NC(=O)N(C)C[C@@H]2OCc3ccccc3-c3ccccc3C(=O)N([C@@H](C)CO)C[C@@H]2C)cc1,1,9,-2.8,i,-2.7
CN(C)C(=O)[C@H]1[C@H](CO)[C@H]2Cn3c(ccc(C4=CCCC4)c3=O)[C@H]2N1Cc1ccc2c(c1)OCO2,-5,-11,0.3,i,2.4

Results, from the start:
SMILES,rRNA inh HTS,rRNA inh HTS OD600,rRNA inh HTS RFP,FGF22 binding,AF4-AF9 inh
COc1ccc(S(=O)(=O)Nc2ccc3c(c2)C(=O)N([C@H](C)CO)C[C@H](C)[C@@H](CN(C)S(=O)(=O)c2ccc(F)cc2)OCCCC[C@H](C)O3)cc1,-4,-1,-1.2,i,-2.2
C/C=C/c1ccc([C@H]2[C@@H](CNC(C)C)N(Cc3cccnc3)[C@H]2CO)cc1,0,-11,2.6,i,0.7
COc1ccc(N2CCN(C3C(=O)Nc4ccccc4-n4nnnc43)CC2)cc1 (centres undefined),1,-17,0.8,i,7.4
COC(=O)[C@@]12C[C@@H](CC(=O)N3CCCCC3)C(=O)N(Cc3ccccc3)C1=CCC(C)(C)C2,1,-7,-0.1,i,-2.0
COc1ccc(NC(=O)N(C)C[C@@H]2OCc3ccccc3-c3ccccc3C(=O)N([C@@H](C)CO)C[C@@H]2C)cc1,1,9,-2.8,i,-2.7
CN(C)C(=O)[C@H]1[C@H](CO)[C@H]2Cn3c(ccc(C4=CCCC4)c3=O)[C@H]2N1Cc1ccc2c(c1)OCO2,-5,-11,0.3,i,2.4
C[C@H]1CN([C@@H](C)CO)C(=O)Cc2cc(NC(=O)NC3CCCCC3)ccc2O[C@H]1CN(C)S(=O)(=O)c1cccs1,-5,-17,4.2,i,2.4
O=C(NCC[C@H]1CC[C@H](NS(=O)(=O)Cc2ccccc2)[C@@H](CO)O1)C1CC1,1,0,-0.4,i,-1.2
C[C@H]1CN([C@@H](C)CO)C(=O)c2cc(NC(=O)NC3CCCCC3)ccc2O[C@H]1CN(C)C(=O)Nc1ccc2c(c1)OCO2,-3,-8,0.1,i,1.3
CC(C)NC(=O)N(C)C[C@H]1OCCCC[C@@H](C)Oc2ccc(NC(=O)CCC(F)(F)F)cc2C(=O)N([C@@H](C)CO)C[C@@H]1C,0,1,-0.4,i,-2.5
CN1CCCCN2[C@H](CO)[C@@H](c3ccc(-c4ccc(F)cc4)cc3)[C@H]2C1,2,10,-0.8,i,-6.5
C[C@H](CO)N1C[C@H](C)[C@@H](CN(C)C(=O)c2cccnc2)Oc2ncc(C3=CCCC3)cc2C1=O,4,4,-2.4,i,2.0
COc1ccc(C(CNC(=O)c2ccc(-c3ccccc3Cl)o2)N2CCCC2)cc1 (centres undefined),-49,-80,-15,i,7.0
CC(C)c1cn(CC[C@H]2CC[C@H](NC(=O)C3CCCC3)[C@H](CO)O2)nn1,-4,0,-0.9,i,-1.0
CC(=O)N1CC2(C1)[C@H](c1ccccc1)[C@@H](CO)N2Cc1ccccc1,4,3,-0.8,i,-1.2
CC=Cc1ccc2n(c1=O)C[C@@H]1[C@@H](CO)[C@H](C(=O)NCc3ccncn3)N(C(=O)NC3CCCC3)[C@H]21 (mixture of isomers),3,-3,-1.4,i,-2.3
COc1ccc(CCNC(=O)Nc2nc(CN)cs2)cc1OC,3,12,0.7,i,1.6
CCNC(=O)C1(C)CCN(C(=O)c2ccccc2OC)C1 (centres undefined),10,14,-1.0,i,0.2
C[C@H]1CN([C@@H](C)CO)C(=O)Cc2cc(NS(=O)(=O)c3ccc(Cl)cc3)ccc2O[C@H]1CN(C)S(=O)(=O)c1ccc(F)cc1,6,-4,1.4,i,1.2
COc1ccc2c3c(n(C)c2c1)[C@H](CO)N(Cc1nccs1)CC31CN(C(C)=O)C1,4,10,-4.1,i,-11
O=C(NCc1cccnc1)c1cc(C2CCCCN2C(=O)CCc2ccccc2)on1 (centres undefined),1,2,-1.6,i,-2.8
Cc1ccccc1S(=O)(=O)N1CCCCN2[C@@H](CO)[C@H](c3ccc(-c4cccnc4)cc3)[C@@H]2C1,-4,-14,5.2,i,-1.7
CC1=C(C(=O)N2CCOCC2)CC(CC(=O)NCC2CCCCC2)C(=O)N1Cc1ccccc1 (centres undefined),20,5,6.3,i,-1.0
CN1C(=O)c2cc(NC(=O)c3ccc(F)c(F)c3)ccc2OC[C@H]2O[C@H](CC(=O)N3CCCCC3)CC[C@H]21,1,7,-0.3,i,0.7
C/C=C/c1ccc([C@@H]2[C@@H](CN(C)S(C)(=O)=O)N(C(=O)CC)[C@H]2CO)cc1,6,6,-0.5,i,-0.1
C/C=C/c1cnc2c(c1)C(=O)N([C@H](C)CO)C[C@@H](C)[C@@H](CN(C)C(=O)Cc1ccccn1)O2,5,8,-3.2,i,0.5
COc1ccc(C(NC(=O)C2CCN(CCOc3ccc(Cl)cc3)CC2)c2cccs2)cc1 (centres undefined),2,-3,20,i,2.4
O=C(COC(=O)c1ccc(O)cc1)NC1CCCCCCC1,-6,-12,-2.5,i,-1.4
COc1cccc(CNC(=O)C[C@@H]2CC[C@@H](NS(=O)(=O)c3ccccc3OC)[C@H](CO)O2)c1,2,5,1.1,i,-0.4
CC(O)(c1ccccc1)c1nc(-c2cccc(C(=O)O)c2)cs1 (centres undefined),-1,-1,4.7,i,0.8
Cc1ccc(F)c(S(=O)(=O)NC(=O)C2(C)CCN2C(=O)C2(c3ccc(Cl)cc3)CC2)c1 (centres undefined),-11,20,-1.9,i,-2.9
O=C(NCc1cccnc1)c1cc(C2CCCN(S(=O)(=O)c3ccccc3)C2)on1 (centres undefined),1,6,1.2,i,-2.5

More compounds follow:
mol | rRNA inh HTS | rRNA inh HTS OD600 | rRNA inh HTS RFP | FGF22 binding | AF4-AF9 inh
CCC(=O)Nc1ccc2c(c1)C(=O)N(C)C[C@@H](OC)[C@@H](C)CN(Cc1cccc(F)c1)[C@H](C)CO2 | -7 | -9 | 1.4 | i | 3.0
COC(=O)C[C@H]1CC[C@@H]2[C@@H](COc3ccc(NC(=O)c4cccc(OC)c4)cc3C(=O)N2C)O1 | -8 | -10 | -0.7 | i | 0.7
CN(C)CCCNC(=O)C[C@@H]1CC[C@@H](NC(=O)c2ccccc2F)[C@@H](CO)O1 | 4 | 2 | -0.5 | i | -2.8
C[C@@H]1CN([C@H](C)CO)C(=O)c2cccc(NS(=O)(=O)c3ccccc3)c2O[C@@H]1CN(C)C(=O)Nc1ccccc1 | 2 | 6 | 4.4 | i | -12
C[C@H](CO)N1C[C@H](C)[C@@H](CN(C)C(=O)Nc2ccc(F)cc2)OCCCC[C@H](C)Oc2ccc(N(C)C)cc2C1=O | -3 | -2 | -1.2 | i | 0.8
COC(=O)[C@H]1[C@H](CO)[C@H]2Cn3c(ccc(-c4ccccc4F)c3=O)[C@H]2N1CC1CCOCC1 | 2 | 4 | -0.9 | i | -1.2
CN(C)CC(=O)N1[C@@H](C#N)[C@@H](c2ccc(C#CC3CC3)cc2)[C@@H]1CO | 8 | 9 | -0.8 | i | 3.9
COCC#Cc1cnc2c(c1)C(=O)N([C@H](C)CO)C[C@H](C)[C@@H](CN(C)C(=O)Nc1ccccc1F)O2 | 1 | -3 | -1.1 | i | 0.5
CC(C)C[C@@H](CN1CCCC1CN1C(=S)NC[C@@H]1Cc1ccccc1)N1C[C@H](Cc2ccccc2)N(CCc2ccccc2)C1=S (some centres undefined) | 10 | 17 | 9.4 | i | -3.3
C[C@@H]1CN([C@@H](C)CO)S(=O)(=O)c2ccc(C#Cc3cccc(F)c3)cc2O[C@H]1CN(C)C | -4 | -41 | 6.6 | i | 6.6
COc1ccc(S(=O)(=O)N(C)C[C@@H]2Oc3ccc(NC(=O)CCN4CCOCC4)cc3C(=O)N([C@@H](C)CO)C[C@H]2C)cc1 | 1 | 11 | 1.0 | i | -1.8
COc1ccc(C#Cc2cnc3c(c2)C(=O)N([C@H](C)CO)C[C@H](C)[C@H](CN(C)C)O3)cc1OC | 3 | 16 | -1.8 | i | -6.2
C[C@H](CO)N1C[C@H](C)[C@H](CN(C)C(=O)Nc2ccc3c(c2)OCO3)Oc2c(NC(=O)Nc3cccc4ccccc34)cccc2C1=O | 0 | 4 | 4.5 | i | 9.4
COc1cccc(S(=O)(=O)N2C[C@@H](O)COC[C@@H]3O[C@@H](CC(=O)NCCCN4CCOCC4)CC[C@H]32)c1 | 3 | 6 | -4.7 | i | -0.9
CCNC(=O)C[C@@H]1CC[C@H]2[C@@H](COc3ccc(NC(=O)Nc4cccc(F)c4)cc3C(=O)N2C)O1 | -2 | -5 | -0.6 | i | 0.8
CCC1NC(=O)c2cccnc2-n2c1nc1ccc(OC)cc1c2=O (centres undefined) | 6 | 3 | -1.9 | i | 3.2
Cc1ccc(NC(=O)N(O)C2CCCCC2C#N)cc1 (centres undefined) | 10 | 16 | 0.9 | i | -2.0
O=C(N[C@H]1CC[C@@H](CCNS(=O)(=O)c2ccccc2)O[C@H]1CO)c1cccnc1 | 4 | 3 | -3.6 | i | -1.8
C[C@H]1CN([C@@H](C)CO)C(=O)c2cc(C#CCN(C)C)cnc2O[C@@H]1CN(C)C(=O)Cc1ccncc1 | -2 | -1 | -0.8 | i | 1.4
C/C=C/c1cnc2c(c1)C(=O)N([C@H](C)CO)C[C@H](C)[C@H](CN(C)C(=O)Nc1ccccc1F)O2 | 6 | 10 | -2.6 | i | -4.4
COCC(=O)N1CCCCN2[C@H](CO)[C@@H](c3ccc(C#Cc4ccccc4)cc3)[C@@H]2C1 | -24 | -52 | 12 | i | -6.4
C[C@@H]1CN([C@@H](C)CO)C(=O)CCCn2cc(nn2)CO[C@H]1CN(C)C(=O)NC1CCCCC1 | 4&13 | 5&11 | -0.4&0.6 | i | -0.7&0.2&-3.6
Cc1ccc(S(=O)(=O)Nc2cccc3c2O[C@H](CN(C)C(=O)Nc2ccccc2)[C@@H](C)CN([C@@H](C)CO)C3=O)cc1 | -1 | 1 | 0.4 | i | -0.6
COCCNC(=O)C[C@H]1C=C[C@@H](NC(=O)NC2CCCC2)[C@H](CO)O1 | -1 | 6 | 0.7 | i | -2.1
O=C(NCCc1ccccc1)c1ccc(NC(=O)C2CCCCC2)cc1 | 1 | 9 | 3.8 | i | -0.6
CNC(=O)C[C@H]1CC[C@H]2[C@@H](COC[C@@H](O)CN2Cc2ccncc2)O1 | -2 | 4 | -0.9 | i | -2.3
CO[C@H](C(=O)N(C)C[C@@H]1OCc2ccccc2-c2ccccc2C(=O)N([C@@H](C)CO)C[C@@H]1C)c1ccccc1 | -2 | 4 | -0.7 | i | -5.3
CN1CCCCN2[C@@H](CO)[C@@H](c3ccc(C#CC4(O)CCCC4)cc3)[C@@H]2C1 | 6 | 10 | -0.5 | i | 1.0
CC(C)(C)c1ccc(C(=O)N2CCC2(C)C(=O)Nc2cccc3ncccc23)cc1 (centres undefined) | -26 | -66 | 0.8 | i | 2.4
Cn1nc(N)c2ncc(-c3ccc(Cl)cc3)nc21 | -1 | 16 | -7.2 | i | 0.6
CC(C)NC(=O)N(C)C[C@H]1Oc2ccc(NS(=O)(=O)c3cccs3)cc2CC(=O)N([C@@H](C)CO)C[C@H]1C | 8 | 12 | 1.2 | i | -3.7
C[C@@H]1CN([C@@H](C)CO)C(=O)c2cc(NC(=O)CCC(F)(F)F)ccc2O[C@H]1CN(C)C | 4 | 12 | -1.6 | i | -3.3
COc1ccc(NC(=O)c2cc(-c3ccc(F)cc3OC)n[nH]2)c(OC)c1 | 7 | 35 | 7.5 | i | -5.6
COc1ccc(NC(=O)c2sc(=O)n(Cc3ccc(F)c(Cl)c3)c2C)cc1OC | -7 | -36 | -1.5 | i | 7.0
CC(C)NC(=O)N(C)C[C@@H]1Oc2c(NS(C)(=O)=O)cccc2C(=O)N([C@@H](C)CO)C[C@@H]1C | 2 | 8 | -3.3 | i | -2.3
Nc1[nH]c(C(=O)c2ccccc2)c(-c2ccc(Br)cc2)c1C(=O)NCCc1c[nH]c2ccccc12 | 2 | -5 | 4.2 | i | 0.9
CN(C(=O)COC(=O)/C=C/c1ccccc1)C1CCS(=O)(=O)C1 (centres undefined) | 10 | 15 | 2.3 | i | 1.1

Assay outcomes as filed in PubChem.
